# Screens from PubChem BioAssay.
# Rango-impB inh = prevents formation of the Rango-importin beta complex. Rango CFP/YFP FRET sensor + importin beta, 45 min. Potency, µM (highest dose often 92.2 µM), for inactives: at the top dose inhibition of complex formation. 0.031% of 340,000 active; active = rising FRET ratio curve, often small or poorly fitted; inconclusive = mostly compound fluorescence or quenching in the first reads; inactive = flat curves in all reads;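 also: potency is read from the fitted curve at half-maximal effect; 0% = DMSO wells and 100% = buffer wells lacking importin beta; nearly all actives have a fitted effect of over 15% in size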
# Target sequence (Q14974 whole entry, looked up): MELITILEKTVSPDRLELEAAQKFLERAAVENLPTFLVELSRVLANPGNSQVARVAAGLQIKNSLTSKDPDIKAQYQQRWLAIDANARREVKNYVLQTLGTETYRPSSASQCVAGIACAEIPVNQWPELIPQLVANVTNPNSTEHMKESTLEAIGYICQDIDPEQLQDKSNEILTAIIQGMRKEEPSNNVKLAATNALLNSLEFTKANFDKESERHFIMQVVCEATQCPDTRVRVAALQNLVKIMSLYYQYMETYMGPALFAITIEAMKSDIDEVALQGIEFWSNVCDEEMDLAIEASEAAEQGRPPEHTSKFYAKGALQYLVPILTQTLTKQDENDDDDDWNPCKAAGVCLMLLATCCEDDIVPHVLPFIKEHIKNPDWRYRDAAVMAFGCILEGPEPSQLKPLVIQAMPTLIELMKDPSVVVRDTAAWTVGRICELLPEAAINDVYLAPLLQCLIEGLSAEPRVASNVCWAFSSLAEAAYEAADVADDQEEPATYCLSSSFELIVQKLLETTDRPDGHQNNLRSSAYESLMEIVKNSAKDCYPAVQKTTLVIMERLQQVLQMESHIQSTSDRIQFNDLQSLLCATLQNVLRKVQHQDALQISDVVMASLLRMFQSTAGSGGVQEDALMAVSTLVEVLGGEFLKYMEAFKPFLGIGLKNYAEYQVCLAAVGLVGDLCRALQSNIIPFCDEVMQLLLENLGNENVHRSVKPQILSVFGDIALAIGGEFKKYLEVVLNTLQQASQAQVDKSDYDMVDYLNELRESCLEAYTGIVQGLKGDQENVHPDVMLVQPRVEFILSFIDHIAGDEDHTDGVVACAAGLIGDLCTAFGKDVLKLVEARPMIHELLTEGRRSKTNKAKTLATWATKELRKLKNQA
#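 Inhibition scored from the CFP 486 nm/YFP 530 nm FRET ratio 45 min after adding 0.125 microM importin beta to 50 nM Rango biosensor preincubated 5 min with compound (room temperature, PBS with DTT, Tween-20, BSA). No-importin wells as positive control.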
# GLA inh pH 4.5 = blocks human alpha-galactosidase A at pH 4.5; activity change, negative = inhibition, % at 105 µM; purified enzyme, 4-MU-alpha-Gal fluorescence, pH 4.5; 230,000 tested, under 10 active; P06280; inconclusive = small, poorly fitted or top-dose-only inhibition, or a rising curve; inactive = flat fitted curve, though single readings scatter; no compound was filed as active;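 also: 0% = full activity with enzyme and -100% = basal without enzyme; dose as in the result columns while the protocol names 77 µM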
# Rango release inh = inhibitors of RanGTP-induced Rango-importin beta complex dissociation. O95149+P62826. Biochemical FRET Rango-importin beta, RanGTP-induced dissociation. Potency, µM (titrated, usually from 46.1 µM), without a hit: top-dose activity change, negative = inhibition. 0.071% of 340,000 active; active means falling FRET ratio curve, often poorly fitted, with flat reads before Ran was added; inconclusive means other falling curves, or compound fluorescence or quenching; inactive means flat or rising ratio curve;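 also: potency is read from the fitted curve at half-maximal effect; % of control where 0% means no effect; nearly all actives have a fitted effect of over 45% in size; -100% = wells without RanGTP and RCC1; the record marks most hits as doubtful in a second field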
#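 FRET read at 45 min, room temperature: inhibitors block the CFP/YFP signal rise when RanGTP (0.6 uM Ran, 2 mM GTP, 0.2 uM RCC1) frees Rango (0.1 uM) from importin beta (0.25 uM). Pre-read after 5 min compound exposure flags interference.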
# miR-21 FLuc = raises the signal of a miR-21 reporter | Potency, µM (series often up to 38.3 µM), without a hit: top-dose reporter change, positive = more light | HeLa miR-21 FLuc reporter, luciferase, 48 h | 340,000 tested, under 10 active; active = well fitted rising curve with a large enough effect; inconclusive = small, poorly fitted or top-dose-only effect; inactive = no such curve, though single readings can be large or run the other way;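 also: % of control where 0% means no effect; miR-21 action dims this reporter so a rising signal means less miR-21 action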
#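 HeLa cells stably expressing CMV-driven firefly luciferase with a downstream miR-21 binding sequence, endogenously expressing miR-21, were treated with titrations (up to about 40uM final) for 48 hours at 37 degree Celsius. Luciferase luminescence was read after lysis.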
# The depositor's hits bear a star; u = inconclusive; x = no result given. A portion of the library; count on the stated rates, not on these rows.
miR-21 FLuc,GLA inh pH 4.5,Rango release inh,Rango-impB inh,SMILES
1%,x,0%,-1.2%,CCCS(=O)(=O)c1nc(S(=O)(=O)c2ccc(C)cc2)c(NCCCn2ccnc2)s1
x,x,1%,-1.1%,O=CNC1(c2ccccc2)CCCCC1
x,x,24%,-0.9%,Cn1c(=O)c(C(=O)c2ccccc2)c(O)c2ccccc21
-7%,16,-1%,-7.5%,COc1cccc(NC(=O)CN(C)C(=O)/C=C/c2cc(OC)ccc2OC)c1
x,x,16%,0.3%,CN(C)Cc1c(C(C)(C)O)[nH]c2ccc(C(F)(F)F)cc12
18%,-4,-4%,2.3%,CCOc1ccc(-c2cc(CCCC(=O)Nc3cc(OC)ccc3OC)no2)cc1
2%,-4,4%,1.5%,Cc1cc(NC(=O)COC(=O)C2COc3ccccc3O2)no1 (stereo not given)
-5%,0,2%,0.4%,Cc1c(NC(=O)c2ccc(Br)s2)c(=O)n(-c2ccccc2)n1C
17%,9,13%,0.5%,COc1ccc(Nc2ccc(S(=O)(=O)N3CCCCCC3)cc2[N+](=O)[O-])cc1
x,x,-1%,-1.0%,CC[C@]12c3[nH]c4ccc(Cl)cc4c3CCN1C(=O)[C@@H](CC(=O)NCCCn1ccnc1)C[C@@H]2C(=O)N1CCN(C(=O)C2CC2)CC1
-14%,2,-3%,-3.0%,CCOC(=O)c1c(C)[nH]c(C(=O)CSc2nc(C)cc(C)n2)c1C
1%,1,16%,-3.6%,COc1cc(C(=O)NNc2nc3cc4c(cc3s2)OCO4)cc(OC)c1OC
-2%,x,-9%,-2.8%,CC(C)C(C)(C#N)NC(=O)CN1C(=O)NC2(CCCc3ccccc32)C1=O (stereo not given)
2%,x,1%,-0.8%,COc1ccc(CC2(CO)CCN(S(=O)(=O)c3cccc4cccnc34)CC2)cc1
x,x,-3%,0.0%,COC(=O)CC1=C(c2ccc([N+](=O)[O-])cc2)CCC1=O
0%,x,-2%,-0.5%,CCOC(=O)N1CCN(S(=O)(=O)N2CCCC(C(=O)NCCCN3CC(C)CC(C)C3)C2)CC1 (stereo not given)
25%,x,-22%,4.0%,COc1ccc(OC)c(Nc2c3ccccc3nc3ccccc23)c1
-6%,10,1%,2.1%,CCOc1cc(CNCc2ccccn2)cc(Cl)c1OCC
-30%,5,-19%,0.4%,CCCCC(=O)Nc1ccc2c3c(cccc13)CC2
x,x,-4%,1.9%,CC(C)n1nc(C(=O)NC2CCCCCC2)c2ccccc2c1=O
-7%,4,11%,1.2%,O=C(O)c1ccccc1/C=N/NC(=S)NC1CCCCC1
x,x,-19%,u,N#C/C(=C/c1ccc(-c2ccc([N+](=O)[O-])cc2)o1)c1nnc(N2CCOCC2)n1-c1ccccc1
-1%,-6,4%,-0.3%,CCOCC(=O)Nc1ccccc1C(=O)N1CCOCC1
0%,-9,1%,-3.1%,CCOC(=O)CSc1ccc(S(=O)(=O)N(C)C2CCCCC2)cc1[N+](=O)[O-]
20%,0,-1%,4.2%,COc1ccccc1-c1cc(C(=O)N/N=C/c2cccs2)c2ccccc2n1
x,x,-6%,-1.1%,CCN(CC(=O)Nc1cc(Cl)ccc1C)C(=O)C1CC1
u,x,-26%,u,CN(C)S(=O)(=O)c1cccc(NC(=O)CSc2cccc3cccnc23)c1
-1%,23,-3%,-2.8%,CCCCn1c2nc3ccccc3nc2c2c(=O)n(C(C)CC)cnc21 (stereo not given)
-27%,3,-4%,-5.3%,C/C(=N\Nc1ccccc1[N+](=O)[O-])c1ccc(N2CCOCC2)cc1
-45%,-7,12%,-2.0%,CCn1cc(SCC(=O)N2CCc3ccccc32)c2ccccc21

# Profiles as entered above:
# COc1ccc(OC)c(Nc2c3ccccc3nc3ccccc23)c1 is entered as miR-21 FLuc: 25%; GLA inh pH 4.5: x; Rango release inh: -22%; Rango-impB inh: 4.0%
# CCCCn1c2nc3ccccc3nc2c2c(=O)n(C(C)CC)cnc21 (stereo not given) is entered as miR-21 FLuc: -1%; GLA inh pH 4.5: 23; Rango release inh: -3%; Rango-impB inh: -2.8%
# CN(C)S(=O)(=O)c1cccc(NC(=O)CSc2cccc3cccnc23)c1 is entered as miR-21 FLuc: u; GLA inh pH 4.5: x; Rango release inh: -26%; Rango-impB inh: u

# (list continues)
miR-21 FLuc,GLA inh pH 4.5,Rango release inh,Rango-impB inh,SMILES
0%,3,-17%,5.5%,CCN(CC)S(=O)(=O)c1ccc(N2CCOCC2)c(NC(=O)CC(C)(C)C)c1
-21%,-17,14%,5.0%,CC(C)Cc1nc(SCc2cccnc2)c2c(=O)n(C)c(=O)n(C)c2n1
-1%,-2,-7%,0.0%,Cc1ccc(CC2S/C(=N/c3ccccn3)NC2=O)cc1 (stereo not given)
-5%,x,-6%,0.1%,CNC(=S)N(CCCO)Cc1cc2cc3c(cc2[nH]c1=O)OCO3
22%,-6,16%,-3.7%,N#Cc1cc(C(=O)c2cc(Br)ccc2O)cn(C2CCCCC2)c1=O
-8%,19,11%,0.2%,O=C(Cn1cnc2ccccc2c1=O)NCc1ccco1
2%,-3,1%,0.0%,O=C(O)C1CCCCC1C(=O)Nc1nc(-c2cccs2)cs1 (stereo not given)
-3%,x,-9%,-5.8%,COc1cccc(C(=O)Cn2c(NCCCO)nc3ccccc32)c1
-4%,x,-20%,2.3%,O=C(CS(=O)(=O)c1ccccc1)Nc1ncc([N+](=O)[O-])s1
x,x,7%,0.4%,Cc1ccc(S(=O)(=O)N(CC(=O)Nc2cccc([N+](=O)[O-])c2)C(=O)N2CCN(C)CC2)cc1
-59%,1,10%,2.1%,Cc1c(-c2nc(-c3ccc(C(C)(C)C)cc3)no2)n(C)oc1=O
-9%,2,-9%,-3.1%,Cc1ccc(C)c(N2CN(Cc3ccco3)CNC2=S)c1
-2%,8,35%,-0.5%,O=S(=O)(Cc1ccccc1)N1CCN(c2ccccc2)CC1
-22%,-4,-2%,1.8%,Cc1ccc(-c2nnc(OCC3CCCO3)c3ccccc23)cc1 (stereo not given)
-3%,4,-2%,-2.9%,COc1ccccc1OCCCC(=O)NCc1ccco1
12%,-9,20%,-0.2%,CCOC(=O)C1(CCOc2ccccc2)CCN(Cc2cccc3nonc23)CC1
-18%,x,17%,-0.3%,Cc1ccc(C(=O)OCC(=O)N(C)c2ccccc2)c(C)c1
-9%,-9,-2%,4.3%,CCOc1ccc(/C=C2\SC(=S)N(NS(=O)(=O)c3ccccc3)C2=O)cc1OC
1%,-4,-8%,9.0%,COc1ccc(SCc2noc(C(=O)NCC3CCCO3)c2C(=O)O)cc1 (stereo not given)
-4%,-16,-11%,0.7%,COc1ccc(NC(=O)N2CCCC2C(=O)Nc2ccccc2)cc1 (stereo not given)
-5%,x,15%,-2.6%,CCN(CC)C(=S)SCc1csc(CC(=O)Nc2ccccc2C)n1
-12%,-2,1%,0.4%,Cc1ccccc1-n1nc(-c2cccnc2)cc1C(=O)NN
x,x,-11%,1.2%,C/C(=C\C(=O)c1ccc(C)cc1)NCc1ccc(F)cc1
-11%,x,5%,5.8%,CCOc1ccccc1C(=O)Nc1ccc2nc3n(c(=O)c2c1)CCCCC3
9%,x,-1%,-1.5%,CC(Sc1nnc(CC(=O)Nc2ccccc2F)n1C)C(=O)Nc1nccs1 (stereo not given)
2%,x,8%,0.6%,Cc1cc(NC(=O)CC(C)C)c(=O)n(Cc2c(F)cccc2Cl)c1
6%,6,1%,1.8%,CCCC(=O)Nc1sc2c(c1C(=O)Nc1ccccn1)CCCC2
14%,5,-3%,-0.3%,COc1ccc(/C=N/NC(=O)CCCOc2ccc(Cl)cc2Cl)cc1[N+](=O)[O-]
-5%,u,1%,1.0%,CSc1ccc(S(=O)(=O)NCCOc2ccccc2C)cc1
x,x,16µM*,u,O/N=C/c1cc(Br)ccc1OCc1ccc(F)cc1
u,x,-8%,-2.8%,Cc1ccccc1NC(=O)c1nc(S(C)(=O)=O)ncc1Cl
-7%,3,-4%,2.2%,CCOC(=O)N1CCN(C(=O)C(=O)NNC(=O)COc2ccc(Cl)c(C)c2)CC1
3%,4,0%,4.6%,Cn1c(=O)c2c(nc(SCC(=O)OCc3ccccc3)n2C)n(C)c1=O
20%,-26,5%,-1.4%,O=S(Cc1ccccc1)CC(O)(c1ccc(Cl)cc1)c1ccc(Cl)cc1 (stereo not given)
x,x,-6%,1.4%,O=C(CN1CCN(c2ccccn2)CC1)Nc1ccccc1C(=O)Nc1ccccc1
-3%,6,1%,0.6%,CC(C)NS(=O)(=O)c1cc(C(=O)O)ccc1Cl
0%,11,7%,0.0%,CC(=O)OC1OCCOC1NC(=S)NCc1ccco1 (stereo not given)
-5%,x,-10%,1.2%,CCc1ccccc1NC(=O)NNC(=O)c1ccc2ccccc2c1O
-5%,x,7%,2.3%,Cc1ccc(S(=O)(=O)Nc2nnc(CC(C)(C)C)s2)cc1
-3%,-9,-3%,7.3%,COc1cc2c(cc1NC(=O)CN1CCN(S(=O)(=O)c3ccc(F)cc3)CC1)oc1ccccc12
3%,0,-4%,1.4%,CC(=O)c1sc(NC(=O)CCCOc2ccccc2C)nc1C
0%,-5,-18%,-0.4%,CCn1ccnc1C(O)c1ccccc1OC (stereo not given)
1%,x,0%,-0.4%,Cc1c(C)c2ccc(OCC(=O)NC(Cc3ccc(Cl)cc3)C(=O)O)cc2oc1=O (stereo not given)
-19%,5,21%,0.7%,Cc1ccc(NC(=S)NCC2CCCO2)cc1C (stereo not given)
x,x,-5%,-0.9%,COc1cc(C(=O)NCCCN2CCCC2=O)ccc1OCc1ccc(Cl)cc1Cl

# Four entries from above in a different format.
# Sequence of screens: miR-21 FLuc	GLA inh pH 4.5	Rango release inh	Rango-impB inh
O=C(Cn1cnc2ccccc2c1=O)NCc1ccco1
→ -8%	19	11%	0.2%
CC(C)NS(=O)(=O)c1cc(C(=O)O)ccc1Cl
→ -3%	6	1%	0.6%
COc1ccc(NC(=O)N2CCCC2C(=O)Nc2ccccc2)cc1 (stereo not given)
→ -4%	-16	-11%	0.7%
COC(=O)CC1=C(c2ccc([N+](=O)[O-])cc2)CCC1=O
→ x	x	-3%	0.0%

# Further results follow.
miR-21 FLuc,GLA inh pH 4.5,Rango release inh,Rango-impB inh,SMILES
-19%,0,-18%,-1.4%,Cc1ccc(NC(=O)c2ccccc2)s1
-21%,-6,0%,2.0%,CC(=O)c1ccc(NS(=O)(=O)c2ccccc2)cc1
x,x,-13%,1.5%,CCOc1cc(C(=O)N/N=C/c2cn(-c3ccccc3)nc2-c2cc3ccccc3o2)cc(OCC)c1OCC
2%,-1,34%,0.7%,O=C(OCc1cn(Cc2ccccc2)nn1)c1ccccc1
-3%,3,23%,-4.7%,Cc1ccccc1NC(=S)NC(=O)c1cc(-c2ccccc2)nc2ccccc12
-9%,0,2%,1.0%,O=C(CN1CCc2ccccc21)NC(c1ccccc1)c1ccccc1
-21%,-2,4%,0.5%,Clc1cccc(Cl)c1COc1ccccn1
0%,x,8%,-1.9%,COc1ccc(-n2c(SCC(=O)NCC3CCCO3)nc3c(c2=O)SCC3)cc1OC (stereo not given)
0%,x,-1%,3.1%,COc1ccc(-c2noc(CNS(=O)(=O)c3ccc(NC(C)=O)cc3)n2)cc1OC
-2%,-2,27%,1.9%,O=[N+]([O-])c1cccc(S(=O)(=O)[N-]c2nc3ccccc3nc2-n2cc[n+](Cc3ccccc3)c2)c1
0%,1,2%,-0.2%,CCCn1nnnc1SCC(=O)Nc1nnc(CC)s1
-9%,-1,-2%,1.6%,CCOCCCNC(=O)CN1C(=O)CSc2cc(S(=O)(=O)N3CCCCCC3)ccc21
x,x,-10%,6.1%,C#CCOCCOCCOCCNc1nc(N2CCN(C(=O)CCCCCCCCCCNC(=O)[C@H](CCCCN)n3cc(C[C@@H](C)CC)nn3)CC2)nc(N2CCN(C(=O)CCCCCCCCCCNC(=O)[C@@H]([C@H](C)O)n3cc(C)nn3)CC2)n1
x,x,-8%,u,Cc1cccc(C(=O)OCC(=O)c2ccc(CC(=O)N3CCOCC3)s2)c1C
x,x,-13%,1.1%,C#CCOCCOCCOCCNc1nc(N2CCN(C(=O)CCCCCCCCCCNC(=O)[C@@H](CCC(=O)O)n3cc(CCCCCN)nn3)CC2)nc(N2CCN(C(=O)CCCCCCCCCCNC(=O)[C@H]([C@@H](C)CC)n3cc(CCCCCN)nn3)CC2)n1
